Screens from PubChem.
Vaccinia Venus: qHTS for Stage-Specific Inhibitors of Vaccinia Orthopoxvirus: Venus Reporter Primary qHTS | Vaccinia virus Venus reporter expression, fluorescence | Potency, µM (series often up to 36.5 µM), for inactives: at the highest dose activity change, negative = inhibition, hits mostly inhibitors | AID 720580, 2013 | 330,000 tested, 0.46% active; active means well fitted inhibition curve with a large enough effect; inconclusive means small, poorly fitted or top-dose-only effect; inactive means no such curve, though single readings can be large or run the other way; tested in A549 cells; also: nearly all actives have a fitted effect of over 30% in size; inactives centre near -10
VACV mCherry inh: qHTS for Stage-Specific Inhibitors of Vaccinia Orthopoxvirus: mCherry Reporter Primary qHTS; Vaccinia virus mCherry reporter infection, fluorescence; about a quarter of the inactives have no number; 310,000 tested, 0.63% active; Potency, µM (top dose mostly 36.5 µM), without a hit: at the top dose activity change, negative = inhibition, hits mostly inhibitors; active = well fitted inhibition curve with a large enough effect; inconclusive = small, poorly fitted or top-dose-only effect; inactive = no such curve, though single readings can be large or run the other way; tested in A549 cells; also: nearly all actives have a fitted effect of over 35% in size; inactives centre near -10
* marks the source's active call; other numbers are inactive results; i = inactive; u = inconclusive; x = not tested or not shown; [ ] = another dose, or the depositor's remark. % is scaled to controls: 0 for no effect and ±100 for the full control effect; potency is read from the fitted curve at half-maximal effect.

SMILES | Vaccinia Venus | VACV mCherry inh
Cc1c(C(=O)OC(C)C)sc(NC(=O)c2cccnc2)c1C#N | -7% | -8%[1.46 µM]
CCCc1[nH]nc2c1C(C1CCCCC1)C(C#N)=C(N)O2 (stereo not given) | -24% | u
Cc1ccc2c(c1)c1ncnc(N3CCN(c4ccccc4)CC3)c1n2C | -9% | x
COCc1ccc(C(=O)N2CCCC(N3CCN(c4cccc(Cl)c4)CC3)C2)s1 (stereo not given) | -13% | -16%
O=C(NC1CCCCC1)C(c1cccnc1)N(C(=O)c1csnn1)c1ccccc1 (stereo not given) | -6% | i
Cc1cc(SCC(=O)OCC(=O)N2CCCC2=O)c(C)cc1Br | -12% | -9%
COC(=O)C1=C(c2ccc(Cl)c(C(F)(F)F)c2)C[C@@H]2CC[C@H]1N2C(=O)NCCOc1ccccc1Cl | u | -27%
Cc1ccc(NC2c3ncccc3C(=O)N2Cc2cccs2)cc1 (stereo not given) | 5% | -16%
Nc1c(C(=O)Nc2ccc(Br)cc2F)sc2nc3c(cc12)N1CCC3CC1 | -25% | -26%
Cc1cnc(NC(=O)CSCc2c(C)noc2C)s1 | -7% | -2%
CCN(c1ccc(OC)cc1)S(=O)(=O)N1CCCC(C(=O)NCc2cccc(C)c2)C1 (stereo not given) | -13% | i
C(=C(c1ccccc1)c1ccccc1)c1ccccn1 | -14% | -6%
CCN1CCN(CC(=O)N2N=C(c3cccs3)CC2c2ccc(C)cc2)C(=O)C1=O (stereo not given) | -9% | -2%
CNC(=O)C1CCC(Cn2c(=O)c3sccc3n(CC(=O)N3CCC(C)CC3)c2=O)CC1 (stereo not given) | -12% | -4%
CC(C)c1ccc(NC(=O)CN2C(=O)NC3(CCCCCCC3)C2=O)cc1 | -29% | -2%
COc1ccc(N2CCN(C(=O)CSc3ncnc4c3cnn4-c3ccc(OC)cc3)CC2)cc1 | -8% | x
O=C(NCc1ccncc1)C12CC3CC(CC(Cl)(C3)C1)C2 | -1% | -4%
Cc1ccccc1NC(=O)Cn1nc(-c2ccc(F)cc2)c2cnc3ccccc3c21 | 12% | 9%
Cc1nn(-c2ccccc2)c(/N=C/c2ccccc2O)c1-c1ccccc1 | -15% | -5%
Cc1cccc(NC(=O)C2CCCN(S(=O)(=O)c3c(C)n[nH]c3C)C2)c1 (stereo not given) | -6% | i
COc1ccc(C2=CC(=O)OC3(CCCC3)O2)cc1 | -4% | -15%
CCCCC[C@H](O)/C=C/C=C\C=C\C=C\[C@@H](O)[C@@H](O)CCCC(=O)O | -10%[0.293 µM] | -1%[0.293 µM]
O=C(c1cc(F)ccc1F)C1CCCN(C(=O)CCN2CCCCO2)C1 (stereo not given) | -5% | i
O=C(Nc1ccccc1N1CCCCC1)c1cc(S(=O)(=O)N2CCOCC2)ccc1F | -26% | -15%
O=C(CSc1nc(-c2ccccc2)ns1)N1CCOCC1 | 3% | i
CCOc1cc2c(cc1O)C(=NOC)CC1C2CCC2(C)C(O)CCC12 (stereo not given) | u | u
C=CCSc1nnc(NC(=O)c2c(CC)noc2C)s1 | -9% | -17%
CC(C)n1cnc2c(Nc3ccc(C(=O)O)cc3)nc(Cl)nc21 | -24% | i
N#Cc1cnn2ccn(C3OC(CO)C(O)C3O)c12 (stereo not given) | -4% | 0%
Cc1nn(S(=O)(=O)c2ccc(Cl)cc2)c(C)c1Sc1ccc([N+](=O)[O-])cc1 | -7% | -10%
CCN(CC)c1ccc2cc(C(N)=O)c(=O)oc2c1 | u | u
O=C1/C(=C\c2ccc(Cl)c(Cl)c2)CN(C(=O)CCN2CCOCC2)C/C1=C/c1ccc(Cl)c(Cl)c1 | 11µM* | u
Cc1cccc(C(=O)OCC(=O)N2c3ccccc3CC2C)c1C (stereo not given) | -12% | u
CCOc1cc(NC(=S)NC)c(OCC)cc1NC(=O)c1cccs1 | 0% | -18%
COC(=O)c1cnc(N2CCN(c3ccc(OC)cc3)CC2)c2ccccc12 | -10%[7.34 µM] | -10%[7.34 µM]
CC(C)C(c1nnnn1Cc1ccccc1)N1CCN(Cc2ccc3c(c2)OCO3)CC1 (stereo not given) | -24% | -21%
Cc1cc(N2CCCC2=O)cc(C)c1S(=O)(=O)Nc1c(C)nn(C)c1C | 5% | i
COc1ccc2c(c1)CCC/C2=N\NC(=O)c1ccoc1C | -4% | i
COc1ccc(/C=C/C2=CC(C)(C)NC(=S)N2)c(OC)c1 | -17% | -21%
COc1cccc(C(=O)N(C)c2nnc(-c3ccncc3)s2)c1 | -8% | i
COCCCNC(=O)CN1C(=O)COc2ccc(S(=O)(=O)N3CCOCC3)cc21 | -9% | -4%
CCN(CC)CCCNC(=O)c1cc2c(=O)n(C)c3ccccc3c2n1C | 2% | -6%
CCOC(=O)N1CCN(C(=O)c2oc3ccc(S(=O)(=O)N4CCCCCC4)cc3c2C)CC1 | -15% | -1%
COC(=O)c1c(NC(=O)c2nc(SCc3ccc(F)cc3)ncc2Cl)sc2c1CCCC2 | 1% | -2%
CCc1ccc(Oc2cc(Cl)nc(N)n2)cc1 | -10% | -15%
COC(=O)c1sccc1NC(=O)CC1C(=O)NCCN1C(=O)c1ccc(C)c(C)c1 (stereo not given) | 3% | i
C/C(=N/NC(=O)CNC(=O)c1ccccn1)c1ccc([N+](=O)[O-])cc1 | -4% | -5%
COc1ccc(-n2nc(C(=O)NCC(=O)NC3CCCCCC3)c3ccccc3c2=O)cc1OC | -9% | -3%
Cn1nc(-c2ccc(Cl)cc2)nc2c(=O)n(C)c(=O)nc1-2 | 2µM* | 2µM*
CSCCC(C(=O)NCc1cccs1)N1C(=O)c2ccccc2C1=O (stereo not given) | -1% | -11%
O=C(Nc1ccc(S(=O)(=O)N2CCOCC2)cc1)c1cc(-c2ccccc2O)n[nH]1 | -6%[7.34 µM] | -10%[7.34 µM]
COc1ccc(C2(C(=O)Nc3ccc(S(N)(=O)=O)cc3)CCCC2)cc1 | -12% | i
Cc1ccc2c(c1)N(C(=O)CCC(=O)NCCCN1CCN(C)CC1)CC(C)O2 (stereo not given) | -7% | -15%
CCc1ccccc1NC(=O)Cn1nc(N2CCN(c3ccccc3OC)CC2)ccc1=O | 0% | -16%
Cc1nn(-c2nc3ccccc3[nH]2)c(N)c1-c1ccccc1 | u | u
O=c1c2ccccc2nc(CSc2nnnn2-c2ccccc2)n1-c1cccc(C(F)(F)F)c1 | -2% | -7%
COc1ccccc1NS(=O)(=O)c1cc(NC(=O)C2CCCC2)ccc1N1CCOCC1 | -10% | -3%
COc1ccc(N2C(=O)c3ccccc3NC2c2ccc(OC)c(COc3ccc(NC(C)=O)cc3)c2)cc1 (stereo not given) | -12% | u
N#Cc1ccccc1Cn1c(=O)n(CCCC(=O)NCc2ccc3c(c2)OCO3)c(=O)c2sccc21 | -10% | -13%
O=c1ccc2cc(OC3O[C@H](CO)[C@@H](O)[C@H](O)[C@H]3O)c(O)cc2o1 (stereo not given in full) | -6% | i

(further entries)
SMILES | Vaccinia Venus | VACV mCherry inh
O=C(NCc1ccccc1Cl)NCc1noc2ccccc12 | -5% | 3%
COc1ccccc1N1C(=NC(=O)CCC2CCCC2)SC2CS(=O)(=O)CC21 (stereo not given) | -5% | -16%
CCOC(=O)c1cc2c(=O)n3ccccc3nc2n(C(C)C)c1=NC(=O)C(C)(C)Oc1ccc(Cl)cc1 | u | -28%
CCCCn1c(N)c(N(CCOC)C(=O)c2ccc(N3C(=O)CCC3=O)cc2)c(=O)[nH]c1=O | -7% | -13%
Cc1cccc2sc(NC(=O)c3cc(S(=O)(=O)N(C)C)ccc3N3CCCC3)nc12 | -11% | -19%
CCN(CC)C(=O)c1sc2c(c1C)c(=O)n(Cc1ccccc1)c(=O)n2Cc1cc(C)ccc1C | -27% | u
O=C(CN1CCCC1)Nc1ccc([N+](=O)[O-])cc1Cl | -11% | i
CC(=O)Nc1ccc(NC(=O)C(C)OC(=O)C2CCN(S(=O)(=O)c3ccc4c(c3)OCCO4)CC2)cc1 (stereo not given) | -3% | -12%
COc1ccc(N(CC(=O)NCCc2ccccc2)S(=O)(=O)c2c(C)nn(C)c2C)cc1 | -10% | -10%
CN(C)C(=O)CN1C(=O)C2CCCCN2C(=O)c2ccccc21 (stereo not given) | -9% | -13%
CCCCCc1cc(OC)cc2c1C(=O)OC(C)(C)O2 | -18% | i
CCOC(=O)c1cc2c(=O)n3ccccc3nc2n(Cc2ccco2)c1=NC(=O)c1ccc(F)cc1 | -24% | -20%
Nc1nonc1-c1nc2ccccc2n1Cc1c(Cl)cccc1Cl | 11% | -2%
Cc1ccc(C(=O)NCCSCc2ccccc2)cc1[N+](=O)[O-] | -9% | -3%
Cc1cc(C)cc(Nc2cc(-c3ccccc3)nc(C)n2)c1 | u | u
Cc1csc(CN(C)C(=O)CC2C(=O)NCCN2Cc2ccc(-c3ccccc3)cc2)n1 (stereo not given) | -4% | u
O=C(CCCC(=O)N(CC(=O)NC1CCCCC1)c1ccc(F)cc1)Nc1ccccn1 | -20% | -20%
CCOC(=O)c1c(C)[nH]c(C)c1C(=O)CN1C(=O)NC2(CCC(C)CC2)C1=O (stereo not given) | -36% | x
Nc1nc(Nc2ccccc2)nc(NCc2ccccc2)c1[N+](=O)[O-] | u | u
COc1ccc(C(=O)NCc2nnc(SCC(=O)Nc3cc(C)on3)o2)cc1OC | 9% | -7%

In another format: results already given
canonical_smiles: CCOC(=O)c1cc2c(=O)n3ccccc3nc2n(C(C)C)c1=NC(=O)C(C)(C)Oc1ccc(Cl)cc1
  Vaccinia Venus: u	VACV mCherry inh: -28%
canonical_smiles: CCCCn1c(N)c(N(CCOC)C(=O)c2ccc(N3C(=O)CCC3=O)cc2)c(=O)[nH]c1=O
  Vaccinia Venus: -7%	VACV mCherry inh: -13%
canonical_smiles: Cc1cccc2sc(NC(=O)c3cc(S(=O)(=O)N(C)C)ccc3N3CCCC3)nc12
  Vaccinia Venus: -11%	VACV mCherry inh: -19%
canonical_smiles: CCN(CC)C(=O)c1sc2c(c1C)c(=O)n(Cc1ccccc1)c(=O)n2Cc1cc(C)ccc1C
  Vaccinia Venus: -27%	VACV mCherry inh: u

Continued.
SMILES | Vaccinia Venus | VACV mCherry inh
CCOC(=O)c1cc(-c2ccc(OC(F)F)cc2)nc2nc(SC)[nH]c(=O)c12 | -24% | -18%
CC(=O)Nc1c(C)nn(-c2ccccc2)c1N1CCC(C(=O)Nc2cc(F)ccc2F)CC1 | -3%[7.34 µM] | -1%[7.34 µM]
C=C1C(C(=O)N2CCOCC2)C1C(=O)N1CCOCC1 (stereo not given) | 0% | i
COc1ccccc1C(=O)NCC(=O)OC(C)C(=O)NC(=O)NC1CCCCC1 (stereo not given) | -10% | x
Cc1c(CC(=O)N2CCC(C(N)=O)CC2)c(=O)oc2cc3c(cc12)CCC1(CCCCC1)O3 | -6% | -14%
N#CC1=C(N)Oc2cc(O)ccc2C1C1CCCCC1 (stereo not given) | u | x
CCOC(=O)N1CCN(C(=O)CN(C)S(=O)(=O)c2ccc(OCC)cc2)CC1 | -18% | -14%
NC(=O)c1nc(Nc2ccccc2)sc1NC(=O)c1c(F)cccc1F | -20% | -19%
OC(c1ccccc1)(c1nc(-c2cccc(F)c2)cs1)C(F)(F)F (stereo not given) | u | -4%
COc1ccc(/C=C(\C#N)C(=O)Nc2cc(S(=O)(=O)N3CCCCC3)ccc2N2CCCCC2)cc1 | 6% | -7%
CCOCC(=O)Nc1nc2ccccc2s1 | -6% | -9%
CC(C)=CC(=O)O[C@H]1[C@@H]2[C@H](C)C(=O)O[C@@H]2C[C@@H](C)[C@@H]2[C@@H](O)CC(=O)[C@]21C | u | u
COc1ccc(C(=O)Nc2ccccc2C(=O)NC(Cc2ccc(O)cc2)C(=O)NNC(=O)c2ccc(C)cc2)cc1 (stereo not given) | -18% | i
Cc1ccc(S(=O)(=O)N2CCOCC2)cc1NC(=O)CSc1cccc[n+]1[O-] | -10% | -12%
O=C(N=Nc1c(O)[nH]c2ccc(Br)cc12)c1cc(-c2cccc3ccccc23)n[nH]1 | u | i
CC(=O)Nc1ccc(C=CC=Cc2cccc([N+](=O)[O-])c2)cc1 | -24% | u
O=S(=O)(NC1=NCCCCC1)c1cccs1 | -6% | -8%
O=C(COC(=O)c1ccc(CO)cc1)NCc1cccs1 | -9% | -16%
COc1ccc(C(=O)Nc2ccccc2-c2nnn(CC(=O)Nc3ccc4c(c3)OCCO4)n2)cc1 | -13% | -2%
c1ccc(Oc2ccccc2-c2cc(NCCc3cccnc3)n3nccc3n2)cc1 | -2% | -5%
COC(=O)/C=C1\N/C(=N\c2nc(C)cc(C)n2)N(c2ccc(C)c(C)c2)C1=O | u | u
COC(=O)CN1C(C(=O)c2ccccc2)=C(OC(=O)c2ccccc2)c2ccccc2S1(=O)=O | -14% | -10%
CC(=O)C1=C(O)C(=O)N(c2ccc(S(=O)(=O)Nc3nccs3)cc2)C1c1ccc(F)cc1 (stereo not given) | -9% | -9%
Cc1cc(C)n2ncc(/C(N)=N/OC(=O)Nc3ccccc3)c2n1 | -6% | -8%
Cc1ccc(C(=O)NCC(=O)N(C)CC(=O)Nc2ccccc2Br)s1 | -22% | -19%

Full records from above. Order of values: Vaccinia Venus	VACV mCherry inh
Cc1ccc(C(=O)NCC(=O)N(C)CC(=O)Nc2ccccc2Br)s1 is listed as -22%	-19%
COC(=O)CN1C(C(=O)c2ccccc2)=C(OC(=O)c2ccccc2)c2ccccc2S1(=O)=O is listed as -14%	-10%

No enrichment for hits; overall some 0.87% were active at least once.
